Screening results (PubChem)
HCMV UL50-53 inh – cytomegalovirus nuclear egress complex inhibition; inhibition, % (concentration not given with the values); HTRF UL50-UL53 interaction, normalized percent inhibition; 190,000 tested, 0.15% active;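 active means both replicates at 50% or more, plus weaker picks with an unusually low signal ratio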;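 further: stock transfer was 100 nL into about 20 µL; 0% = negative control wells and 100% = wells with untagged competitor protein; inactives centre near -12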
Sa growth inh – S. aureus growth inhibition. 170,000 tested, 0.53% active. S. aureus RN4220 growth, OD600, 20 h, 42 °C; active compounds read low. relative growth, % (test concentration not listed);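 active means growth at 42 °C up to 50% and 20 or more points under that at 30 °C, or under 10% at both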;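 further: 300 nL library stock went into each well; scaled to the means of positive and negative controls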
GIV-Gai inh – GIV-Galpha-i interaction inhibition. percent of control (FP), % (concentration not given with the values). Galpha-i3/FITC-GIV peptide fluorescence polarization, 90 min; active compounds read low; scaled: aluminum fluoride 0%, vehicle 100%. 210,000 tested, 0.42% active;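 active means replicate mean at 85% of control or lower, very high polarization wells dropped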;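 further: wells of about 15 µL received 100 nL stock; the first replicate is given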
Target sequence (P08753 whole entry, looked up): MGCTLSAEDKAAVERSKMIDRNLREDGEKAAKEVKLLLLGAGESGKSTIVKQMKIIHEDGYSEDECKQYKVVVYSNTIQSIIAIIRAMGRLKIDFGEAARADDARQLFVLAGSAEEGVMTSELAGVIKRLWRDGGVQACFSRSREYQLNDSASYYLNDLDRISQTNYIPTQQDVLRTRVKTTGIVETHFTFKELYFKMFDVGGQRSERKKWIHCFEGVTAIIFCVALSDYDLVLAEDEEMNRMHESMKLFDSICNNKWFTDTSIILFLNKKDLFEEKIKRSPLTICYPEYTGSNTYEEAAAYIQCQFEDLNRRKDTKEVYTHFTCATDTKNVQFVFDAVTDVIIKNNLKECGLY
Sa growth inh second temp – recorded beside Sa growth inh, whose call it bears; relative growth, %; measured here: growth at 30 °C;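 optical density after 20 h as mean of two plates; 100% = untreated growth and lower means inhibition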
An asterisk follows results filed as active; · = no result given; & = joins results of further samples.

cpd | molecule | HCMV UL50-53 inh | Sa growth inh | Sa growth inh second temp | GIV-Gai inh
1 | CC(=O)C1=C(c2ccc(Cl)cc2)N(C(C)=O)n2c(nnc2C2CCCCC2)S1 | · | 81 | 94 | 100
2 | Cc1nonc1-c1cn2cc(Br)cc(Br)c2n1 | -25 | 114 | 108 | 105
3 | Cc1ccc(C)n1-c1nn(S(C)(=O)=O)c2cccc(F)c12 | -17 | 94 | 95 | 100
4 | CCCn1nc(C(=O)Nc2nnc(C3CC3)s2)c2ccccc2c1=O | -17 | 92 | 88 | ·
5 | COc1ccc(-c2nc(NCc3ccc(F)cc3)c3ccccc3n2)cc1OC | 6 | · | · | 104
6 | CC1=C(/C=C/C(C)=C/C=C/C(C)=C\C(=O)O)C(C)(C)CCC1 | -21&-10&-23&-60&-29 | 93 | 88 | 102
7 | CN1CCN(C2CC(=O)N(C3CCCCC3)C2=O)CC1 (stereo not given) | 7 | 92 | 102 | 105
8 | O=C1CS/C(=C/C(=O)c2ccc(Cl)cc2)N1 | -17 | 117 | 101 | 105
9 | O=C(NCCn1ccc2ccccc21)c1ccc(S(=O)(=O)N2CCCCC2)cc1 | -19 | 98 | 84 | 103
10 | CCCCN(CCCC)CCNC(=O)c1cn(C)c2ccc(S(=O)(=O)N3CCCC3)cc2c1=O | 32 | 100 | 109 | 109
11 | COc1ccc(/C=C/C(=O)Nc2sc(C)c(C)c2C(=O)O)cc1 | -84 | 112 | 76 | 101
12 | O=C(CSC1=NCCS1)Nc1ccnc2ccccc12 | -11 | 106 | 85 | 96
13 | Cc1ccc(C(=O)Cn2nnc(-c3ccccc3)n2)c(C)c1 | -12 | 95 | 95 | ·
14 | COc1cc(OC)c(NC(=O)Nc2c(C)n(C)n(-c3ccccc3)c2=O)cc1Cl | 58 | 105 | 90 | 102
15 | C=CCN1CC(C(N)=O)Oc2ccccc21 (stereo not given) | 0 | 98 | 100 | ·
16 | CCc1c(-c2ccccc2)[nH]c2nc3c(c(=O)n(C)c(=O)n3C)n12 | 6 | 85 | 90 | 106
17 | Cc1noc(-c2ccccc2NC(=O)C2CC(=O)N(Cc3ccccc3)C2)n1 (stereo not given) | -30 | · | · | 108
18 | Cc1ccc(Cl)cc1Nc1nnc(C)c(=O)[nH]1 | -26 | · | · | 105
19 | COc1ccc(-c2n[nH]c(=S)n2/N=C/c2c(C)nn(-c3ccccc3)c2C)cc1OC | -4 | 120 | 100 | 103
20 | CCc1ccc(C(=O)OCCN2C(=O)c3ccccc3C2=O)cc1 | -29 | 76 | 94 | ·
21 | COCCNC(=O)C1CCCN(C(=O)c2[nH]c(C)c(C(=O)OC)c2C)C1 (stereo not given) | 19 | · | · | 101
22 | Cn1c(=O)c(C(=O)Nc2cccnc2)nn(-c2ccc(F)cc2)c1=O | -53 | · | · | 104
23 | COC(=O)C1CSCN1S(=O)(=O)c1ccccc1 (stereo not given) | -15 | 83 | 93 | ·
24 | CC1CCCC(C)N1C(=O)CN1c2cccc3cccc(c23)S1(=O)=O (stereo not given) | -40 | 105 | 89 | ·
25 | Cc1ccc(-c2nn(C3OC(CO)C(O)C3O)c(=S)o2)cc1 (stereo not given) | -11 | 78 | 68 | ·
26 | c1ccc(-c2ccc(CNCc3ccc4c(c3)OCO4)o2)cc1 | -22 | · | · | 104
27 | COc1ccc(CSC2=C(C#N)C(=O)NC3(CCCCC3)S2)cc1 | 4 | 114 | 99 | 101
28 | CCC(C)NC(=O)CCSc1nc(-c2ccc3c(c2)OCO3)cc(C(F)(F)F)n1 (stereo not given) | 0 | 108 | 102 | 103
29 | Cn1c(=NC(=O)CS(=O)(=O)c2ccccc2)sc2ccccc21 | -23 | 102 | 79 | 103
30 | O=C(Nc1ccc(Oc2ccccc2)cc1)c1ccc(F)c(S(=O)(=O)N2CCN(c3ccccc3F)CC2)c1 | · | 99 | 84 | 107
31 | COc1cc(OC)cc(C(=O)Nc2cc(C)nn2-c2ncnc3c2cnn3-c2ccccc2)c1 | -33 | · | · | 100
32 | N#Cc1cc(Sc2nc3ccccc3s2)c(-n2nnc3ccccc32)cc1C#N | -12 | 102 | 94 | 110
33 | CCOC(=O)c1sc(-c2cccc(Cl)c2)nc1O | -14 | 98 | 18 | 107
34 | O=C(C1CCCN1S(=O)(=O)c1ccccc1)N1CCCCC1 (stereo not given) | 5 | 94 | 105 | 101
35 | O=C(O)c1cccnc1Br | -26 | 100 | 84 | 98
36 | COc1ccc(NC(=O)N2CCN(Cc3nc(-c4ccccc4)oc3C)CC2)cc1OC | 1 | · | · | 102
37 | CCCN(CCC)C(=O)C1Sc2nnc(C)n2NC1c1ccc(Cl)cc1 (stereo not given) | -11 | 97 | 83 | 102
38 | CCOC(=O)c1ccc2c(c1)NC(CC(=O)Nc1ccc(F)cc1)C(=O)N2CC (stereo not given) | -2 | 92 | 85 | ·
39 | Cc1cc(C)c(S(=O)(=O)N2CCc3cc4ccccc4nc32)c(C)c1 | -12 | · | · | 106
40 | COc1ccc2[nH]c(=O)c(CN(C(=O)c3cccc(Cl)c3)c3ccccc3OC)cc2c1 | -18 | 111 | 85 | 105
41 | S=C(Nc1ccccc1)N1CCn2c(nc3ccccc32)C1 | -16 | 96 | 89 | 99
42 | COC(CN1C(=O)C2C3C=CC(C3)C2C1=O)OC (stereo not given) | · | 84 | 92 | 98
43 | CC1c2ccsc2CCN1S(=O)(=O)c1ccccc1 (stereo not given) | -14 | 101 | 97 | 105
44 | CC(C)CCn1c(=O)c2c(nc3n2CCS3)n(C)c1=O | -12 | · | · | 101
45 | COc1cccc(OCc2cc(=O)n3c(-c4ccccc4)csc3n2)c1 | -29 | 115 | 80 | 107
46 | CCc1ccc(NC(=O)c2cc(S(=O)(=O)N3CCCCC3)c[nH]2)cc1 | · | 104 | 99 | 94
47 | Cc1ccc(S(=O)(=O)N2CCN(C(=O)C3C4C=CC(C4)C3C(=O)O)CC2)cc1C (stereo not given) | -24 | 111 | 97 | 97
48 | O=C(NCCc1csc(-c2cccnc2)n1)c1ccccc1 | · | 104 | 96 | 100
49 | CC1CC(C)(C)NC(=S)N1CCC(=O)Nc1ccc(Cl)cc1 (stereo not given) | · | 114 | 83 | 102
50 | Cc1ccc(NC(=O)c2cc3ccccc3o2)c(C)c1 | -12 | 94 | 82 | ·

3 structures already listed, ordered by SMILES length, highest first:
cpd | molecule | HCMV UL50-53 inh | Sa growth inh | Sa growth inh second temp | GIV-Gai inh
31 | COc1cc(OC)cc(C(=O)Nc2cc(C)nn2-c2ncnc3c2cnn3-c2ccccc2)c1 | -33 | · | · | 100
42 | COC(CN1C(=O)C2C3C=CC(C3)C2C1=O)OC (stereo not given) | · | 84 | 92 | 98
35 | O=C(O)c1cccnc1Br | -26 | 100 | 84 | 98

Further structures
cpd | molecule | HCMV UL50-53 inh | Sa growth inh | Sa growth inh second temp | GIV-Gai inh
51 | O=C(Cn1c(=O)c(C(F)(F)F)nc2ccccc21)Nc1ccc(Br)cc1F | -3 | 87 | 90 | 103&101
52 | FC(F)(F)c1ccc(=S)[nH]c1 | -18 | 10 | 27 | ·
53 | CCOC(=O)c1c(NC(=O)c2cnn3c2NC(c2ccc4c(c2)OCO4)CC3C(F)(F)F)sc2c1CCC2 (stereo not given) | -16 | · | · | 93
54 | O=C(c1cc(-c2ccc(O)cc2)on1)N1CCc2ccccc2C1 | -4 | 62 | 24 | 102
55 | O=S(=O)(c1ccccc1)c1nc(-c2ccc(Cl)cc2)oc1N1CCCC1 | -16 | · | · | 102
56 | CCOc1cc(C(=O)OCc2cc(=O)n3c(C)csc3n2)cc(OCC)c1OCC | · | 54 | 13 | 97
57 | CC(=O)Nc1ccc2c(c1)ncn2C(C)(C)C | -18 | 103 | 87 | 102
58 | O=C(NCc1ccc2c(c1)OCO2)c1ccc(CS(=O)(=O)c2cccc(C(F)(F)F)c2)o1 | · | 86 | 88 | 103
59 | CCN(CC)CCCNC(=O)CCCN1C(=O)C(c2ccccc2)Oc2cccnc21 (stereo not given) | 2 | · | · | 101
60 | CCOc1ccc(C(=O)Nc2ccc3oc(-c4ccc(Br)cc4)nc3c2)cc1 | -34 | 98 | 88 | 106
61 | CC(C(=O)O)n1cnc2c1c(=O)[nH]c(=O)n2C (stereo not given) | -9 | 94 | 74 | 95
62 | CCN(CC)CCN(C(=O)c1ccco1)c1nc2ccc(Cl)cc2s1 | · | 106 | 91 | 107
63 | CCNc1nc(N2CCCC2)nc(N2CCCC2)n1 | 8 | 90 | 65 | 99
64 | CC(C)S(=O)(=O)c1csc(C(=O)OCC(=O)c2ccccc2)c1N | 2 | 100 | 96 | 101
65 | COc1ccc(OCC(O)CNC(=O)C2=Cc3cc(Cl)ccc3OC2)cc1 (stereo not given) | -26 | 100 | 82 | 103
66 | Cc1oc(S(=O)(=O)N2CCOCC2)cc1C(=O)O/N=C(\N)c1ccc(C(C)(C)C)cc1 | -35 | 90 | 81 | 101
67 | CCN(CC)C(=O)CN1c2ccc(F)cc2-c2ccccc2S1(=O)=O | -20 | · | · | 107
68 | Cc1nn(-c2ccccc2)c2c1N(C(=O)CCC(=O)N1CCN(c3ccccc3F)CC1)CCS2 | -24 | 112 | 61 | 99
69 | COc1ccc(NC(=O)c2ccc3c(c2)NC(=O)c2ccccc2S3)cc1Cl | · | 88 | 89 | 107
70 | CCOC(=O)C1=C(C)NC(C)=C(C(=O)OCC)C1c1ccccc1/C=C/C(=O)OC(C)(C)C | -40 | 101&93 | 92&84 | 106
71 | O=C(CN1C(=O)S/C(=C/c2ccc(N3CCCCCC3)o2)C1=O)N1CCCCCC1 | -25 | 95 | 86 | ·
72 | COc1ccccc1CN(C(=O)c1noc2c1CCc1sccc1-2)C1CCN(C)CC1 | 26 | 112 | 92 | 111
73 | Nn1c(C2CCCO2)n[nH]c1=S (stereo not given) | -9 | 80 | 86 | ·
74 | CCCCCN(c1nc2nc(C)cc(C)n2n1)S(=O)(=O)c1ccc(C)cc1 | -16 | · | · | 105
75 | COc1cccc(-n2ccn(CC(=O)c3ccc(F)cc3)c(=O)c2=O)c1 | -37 | 91 | 90 | 95
76 | O=C(c1cccs1)N1CCCc2ccccc21 | -2 | 124 | 74 | 103
77 | Cc1ccccc1C(=O)Nc1ccc2nc(N3CCC(N4CCCCC4)CC3)cc(C(=O)O)c2c1 | -26 | · | · | 104
78 | Cc1ccc(OCC(=O)N2c3ccccc3CC2C)cc1 (stereo not given) | -15 | 112 | 100 | 108
79 | CCc1nnc(SCC(=O)Nc2ccccc2C(F)(F)F)c2cc3occc3n12 | -42 | 98 | 80 | 109
80 | CC(O)Cn1c(=S)[nH]c2ccc(Br)cc2c1=O (stereo not given) | -5 | 93 | 76 | ·
81 | CCCn1c(=NC(=O)CCS(=O)(=O)c2ccccc2)sc2cc(S(N)(=O)=O)ccc21 | 12 | 100 | 98 | 112
82 | CC(C)c1ccc(NC(=O)COc2ncnc3cc(Cl)ccc23)cc1 | -38 | 94 | 83 | 105
83 | COc1ccc(C2=C(N3CCN(c4cccc(C)c4)C(C)C3)c3ccccc3C2=O)cc1 (stereo not given) | -13 | 102 | 87 | 104
84 | Cc1cccc(NC(=O)CSc2nc(-c3cccs3)cc(C(F)(F)F)c2C#N)c1C | -13 | 101 | 96 | 135
85 | CC1=C(c2ccc(C)cc2)S(=O)(=O)N(Cc2ccc(C(=O)Nc3ccc(C)c(F)c3)cc2)C1=O | · | 81 | 90 | 100

Filtered by structure, those above with a thiophene ring, fused or not (seven)
cpd | molecule | HCMV UL50-53 inh | Sa growth inh | Sa growth inh second temp | GIV-Gai inh
11 | COc1ccc(/C=C/C(=O)Nc2sc(C)c(C)c2C(=O)O)cc1 | -84 | 112 | 76 | 101
43 | CC1c2ccsc2CCN1S(=O)(=O)c1ccccc1 (stereo not given) | -14 | 101 | 97 | 105
53 | CCOC(=O)c1c(NC(=O)c2cnn3c2NC(c2ccc4c(c2)OCO4)CC3C(F)(F)F)sc2c1CCC2 (stereo not given) | -16 | · | · | 93
64 | CC(C)S(=O)(=O)c1csc(C(=O)OCC(=O)c2ccccc2)c1N | 2 | 100 | 96 | 101
72 | COc1ccccc1CN(C(=O)c1noc2c1CCc1sccc1-2)C1CCN(C)CC1 | 26 | 112 | 92 | 111
76 | O=C(c1cccs1)N1CCCc2ccccc21 | -2 | 124 | 74 | 103
84 | Cc1cccc(NC(=O)CSc2nc(-c3cccs3)cc(C(F)(F)F)c2C#N)c1C | -13 | 101 | 96 | 135

Pulled by structure from the list above, seven records:
cpd | molecule | HCMV UL50-53 inh | Sa growth inh | Sa growth inh second temp | GIV-Gai inh
78 | Cc1ccc(OCC(=O)N2c3ccccc3CC2C)cc1 (stereo not given) | -15 | 112 | 100 | 108
83 | COc1ccc(C2=C(N3CCN(c4cccc(C)c4)C(C)C3)c3ccccc3C2=O)cc1 (stereo not given) | -13 | 102 | 87 | 104
85 | CC1=C(c2ccc(C)cc2)S(=O)(=O)N(Cc2ccc(C(=O)Nc3ccc(C)c(F)c3)cc2)C1=O | · | 81 | 90 | 100
81 | CCCn1c(=NC(=O)CCS(=O)(=O)c2ccccc2)sc2cc(S(N)(=O)=O)ccc21 | 12 | 100 | 98 | 112
76 | O=C(c1cccs1)N1CCCc2ccccc21 | -2 | 124 | 74 | 103
84 | Cc1cccc(NC(=O)CSc2nc(-c3cccs3)cc(C(F)(F)F)c2C#N)c1C | -13 | 101 | 96 | 135
80 | CC(O)Cn1c(=S)[nH]c2ccc(Br)cc2c1=O (stereo not given) | -5 | 93 | 76 | ·
